D2 agonist = human D2 receptor agonism in beta-arrestin assay; P14416; DiscoveRx PathHunter D2 beta-arrestin, luminescence, 90 min; 100% = 57 uM dopamine signal; activation, % (no concentration beside the values); hit rate 0.084% among 360,000; in the data active = activation above about 40%; inconclusive = about 15% to 40%; inactive = below about 15%; note: compound concentration not given in the record; the text of the record calls up to 30% inactive
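DiscoveRx PathHunter D2 beta-arrestin cells (2,100/well) attached overnight, then compound-stimulated 90 min at 37 C in HBSS/10 mM HEPES/0.1% Tween-20 buffer; beta-galactosidase complementation read by luminescence after 1 h at ambient temperature. Dopamine 57 uM final (EC100) as control.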
TRPML1 blocker = blocks the human TRPML1 channel; AID 624415; activity change, negative = inhibition, % (test concentration not listed); Q9GZU1; TRPML1-inducible cells, Ca2+ dye fluorescence, FDSS; active compounds read low; inhibition of EC80 agonist-evoked calcium signal; hit rate 0.02% among 390,000; in the data active means activity change below about -50%; inconclusive means about -30% to -50%; inactive means above about -30%;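 note: stimulus is agonist 54-4 at its EC80 concentration; % is set by controls: 0 for no effect and ±100 for the full control effect; compound concentration not given in the record; the text of the record puts the active cut at -80%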
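TRPML1-DL cells, Tet-induced overnight (~16 h, 37 °C) at 1,500 cells/well, were loaded with Ca8 no-wash dye plus quencher for 45-90 min at room temperature. Compounds were pinned during FDSS kinetic reading; agonist 54-4 at EC80 (4 uM final) then added.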
PINK1 modulator = changes PINK1 expression; PINK1 immunofluorescence, high-content cytometry, 24 h; Potency, µM (titrated, usually from 76.6 µM), without a hit: at the top dose activation (PINK1 increase), actives largely listed as activators; hit rate 0.2% among 410,000; AID 624263; active = well fitted activation curve with a large enough effect; inconclusive = small, poorly fitted or top-dose-only effect; inactive = flat fitted curve, though single readings scatter; cell line not stated here;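 note: potency is the fitted concentration of half-maximal effect; % of control where 0% means no effect; nearly all actives have a fitted effect of over 65% in size; a mitochondrial uncoupler was the plate control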
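Compound titrations (5 concentrations, 24 h) on a stable cell line; DMSO and CCCP controls. Endpoint: fixed-cell PINK1 immunofluorescence with mitochondrial, cell and nuclear markers, scanned by microplate cytometer.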
D2 PAM = potentiates the human D2 dopamine receptor allosterically; P14416; DiscoveRx D2 beta-arrestin cells, luminescence, 90 min; 100% = 57 uM dopamine signal; potentiation, % (no concentration beside the values); hit rate 0.23% among 360,000; AID 624464; active = potentiation of 50% or more; inconclusive = 30% to 50%; inactive = 30% or less;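 note: compound concentration not given in the record; tested on top of an EC20 dose of dopamine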
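PathHunter beta-arrestin assay in DiscoveRx D2 cells. Compounds were added with an EC20 of dopamine (50 nM final) for 90 min at 37 deg C. Luminescence was read 1 h after detection reagent, with 57 uM dopamine as the EC100 control.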
Six1-Eya2 blk = Six1/Eya2 interaction inhibition; Q15475+O00167; AlphaScreen GST-Six1/His-Eya2 binding, biochemical; active compounds read low; control for the full effect not named in the record; activity change, % (no concentration beside the values); hit rate 0.56% among 360,000; AID 651725; in the data active = activity change below about -65%; inconclusive = about -30% to -65%; inactive = above about -30%; note: % is set by controls: 0 for no effect and ±100 for the full control effect
Target sequence (O00167 whole entry, looked up): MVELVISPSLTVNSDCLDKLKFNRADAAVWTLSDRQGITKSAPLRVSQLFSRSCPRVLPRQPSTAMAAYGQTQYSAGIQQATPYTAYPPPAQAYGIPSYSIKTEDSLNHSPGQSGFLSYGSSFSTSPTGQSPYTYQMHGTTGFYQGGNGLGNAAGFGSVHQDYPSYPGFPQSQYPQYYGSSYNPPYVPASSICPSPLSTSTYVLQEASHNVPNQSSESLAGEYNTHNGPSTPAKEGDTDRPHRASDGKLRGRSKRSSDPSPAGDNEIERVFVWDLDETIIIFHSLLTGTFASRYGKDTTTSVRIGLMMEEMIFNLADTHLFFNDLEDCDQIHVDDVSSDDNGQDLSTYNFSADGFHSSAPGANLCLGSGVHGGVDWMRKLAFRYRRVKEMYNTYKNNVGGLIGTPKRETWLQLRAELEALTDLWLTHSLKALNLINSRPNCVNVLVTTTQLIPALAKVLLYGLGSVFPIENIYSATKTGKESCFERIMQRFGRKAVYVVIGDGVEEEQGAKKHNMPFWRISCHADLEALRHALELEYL
Target sequence (Q15475 whole entry, looked up): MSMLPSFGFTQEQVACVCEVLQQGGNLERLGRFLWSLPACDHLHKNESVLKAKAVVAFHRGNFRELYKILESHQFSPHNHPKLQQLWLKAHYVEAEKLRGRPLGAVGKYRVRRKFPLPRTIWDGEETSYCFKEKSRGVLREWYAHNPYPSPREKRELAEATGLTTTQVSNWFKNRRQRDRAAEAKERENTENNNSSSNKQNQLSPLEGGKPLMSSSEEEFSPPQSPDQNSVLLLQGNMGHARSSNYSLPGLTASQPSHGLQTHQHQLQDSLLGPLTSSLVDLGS
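Homogeneous AlphaScreen proximity assay pairing GST-Six1 with His-tagged Eya2 (added as 5X mix: 250 nM and 500 nM) in 50 mM Tris pH 8.0, 300 mM NaCl, 1 mM TCEP. Glutathione donor and nickel acceptor beads; 1 h, 37 °C, dark.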
TRPML1 ag = activates the human TRPML1 channel | TRPML1-expressing cells, Ca2+ dye fluorescence, FDSS; host cell line not named in the record; reference of the full effect not given here | activation, % (test concentration not listed) | hit rate 0.12% among 410,000; in the data active = activation above about 50%; inconclusive = about 30% to 50%; inactive = below about 30%; note: 0% is about no effect; the text of the record puts the active cut at 80%
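Calcium fluorescence on an FDSS kinetic reader gave the read-out. Tet-induced TRPML1-DL cells were plated overnight, dye-loaded (Ca8 with quencher, 45-90 min, room temperature, dark), then read 110 s after compound addition, and again 110 s after 4uM final 54-4 (EC80).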
The depositor's hits bear a star; ? = inconclusive; . = not tested or not shown; & = joins results of further samples; [ ] = dose if it differs, or a comment.

SMILES	D2 agonist	TRPML1 blocker	PINK1 modulator	D2 PAM	Six1-Eya2 blk	TRPML1 ag
C=CCC1[C@H](C)[C@H]2[C@@H]3CC[C@@H](C3)[C@H]2CN1S(=O)(=O)c1ccc(C)cc1 (some centres not stated)	-0.9	-13	13%	.	20	54*
COc1ccccc1CNC(=O)c1ccc(NS(=O)(=O)c2cccs2)cc1	-5.8	0	6.8%	2	13	-1.5
CCS(=O)(=O)c1ccc2oc(Nc3cccc(OC)c3)nc2c1	2.5	-16	3.7%	-2	4	0.2
CC(=O)c1cccc(CN2CCCC(C(=O)c3ccc4c(c3)OCO4)C2)c1 (configuration not stated)	-2.4	-1	3.2%	-20	-2	-0.5
CCCCNC(=O)O[C@@H]1C[C@H]2CCCC(=O)N3CC[C@@H](C1)[C@@H]23	0.8	19	2.5%	-4	0	0.0&0.4
Fc1ccc(Nc2c3c(nc4ccccc24)CCC3)cc1	-0.3	10&11	?	-17	-5	-0.4&-0.5
COc1cccc(NC(=O)CSc2c3c(nc4ccccc24)CCCC3)c1	-4.5	-1&4	0.7%&-1.4%	-20	-7	1.5&3.5
CC(=O)Nc1ccc(-c2nc3ccccc3o2)cc1	-4.0	5	-0.2%	0	-13	0.0
Cc1ccc(NC(=O)Cn2c(=O)n(CCCCC(=O)NCCc3ccccc3)c(=O)c3ccccc32)cc1	.	5	0.8%	.	.	-0.8
Cn1cnnc1SCC(=O)Nc1ccccc1C(=O)NC1CCCC1	-2.2	8	3.2%[38.3 µM]	-2	5	-0.6
Cc1ccc(NC(=O)C(c2ccccc2)c2ccccc2)c(O)c1	-0.4	4	24%	3	3	0.3
Cc1ccc(S(=O)(=O)NNC(=O)/C=C/c2cccc(F)c2)cc1	-5.5	4	0.3%	-4	1	-0.5
O=C(CSc1nnc(CNC(=O)c2cccs2)o1)NCC1CCCO1 (configuration not stated)	1.3	-12	-0.7%	2	-1	2.7
CC1=C(C(=O)N(C)C)CC(CC(=O)NCCN2CCOCC2)C(=O)N1CCCN1CCCC1=O (configuration not stated)	-6.7	-3	3.0%	-7	9	-0.3
COc1ccc(-c2noc(N3CCC(C(=O)Nc4ccc(F)cc4)CC3)n2)cc1	0.9	-13	6.5%	-3	1	0.8
CCn1c(SCC(=O)NC2CC2)nnc1-c1ccccn1	-0.1	19	0.2%	6	-1	-0.2
Cc1oc(C(C)(C)C)cc1C(=O)NCc1ccc2c(c1)OCO2	3.4	-21	-0.9%	-2	0	3.3
CN1C[C@@H]2[C@@H]3C(=O)N(Cc4ccccc4)C(=O)[C@@H]3[C@](C)(C1=O)N2C(=O)c1ccc(Cl)cc1	-0.8	7	0.3%	-3	2	0.6
COc1ccc(NC(=O)NC2(C)CCS(=O)(=O)C2)cc1 (configuration not stated)	-2.2	-10	5.4%	4	-2	-0.1
Cc1ccc(Cn2c(Sc3nnc(C)s3)nc3c2c(=O)[nH]c(=O)n3C)cc1	-4.7	10	0.2%	0	6	-0.1
COCC(=O)Nc1cc(Cl)c(OC)cc1OC	-0.3	3	-0.4%	13	3	-0.1
Cc1c(C(=S)Nc2ccccc2)cnn1-c1ccc([N+](=O)[O-])cc1	8.6	2	1.8%	10	-19	2.8
CCOC(=O)Nc1ccc2c(c1)N(C(=O)N(C)C)c1ccccc1CC2	-3.8	59	-1.1%	11	-3	0.8
CC(OC1=CC(=O)CCC1)C(=O)c1ccccc1 (configuration not stated)	-0.5	3	26%[38.3 µM]	-12	6	-0.9
O=C(C1=C[C@H](c2ccccc2)C[C@H](OCCCCO)O1)N1CCN(Cc2ccc3c(c2)OCO3)CC1	-4.0	21	-0.7%	-17	-1	1.6
O=[N+]([O-])c1ccccc1/C=C/C=N/Nc1ccc(S(=O)(=O)Nc2ccc(Cl)cc2)cc1[N+](=O)[O-]	-2.3	16	1.6%	-2	?	0.7
COc1ccc2nc(NC(=O)c3cccs3)sc2c1	-8.7	0	3.3%	-5	1	0.7
CCOc1ccc2oc(=O)cc(CN3CCN(c4ccccc4OC)CC3)c2c1	.	3	-0.5%	.	.	-0.2
COc1ccc(C(=O)COC(=O)c2n[nH]c3ccccc23)c(OC)c1	7.2	0	0.8%	6	-15	0.8
CSc1nsc(NC(=O)CCNC(=O)c2ccc([N+](=O)[O-])cc2)n1	-7.3	2	4.3%	3	-3	-1.4
CCCCn1c(N)c(N(Cc2ccccc2OC)C(=O)c2c(CC)noc2C)c(=O)[nH]c1=O	2.8	-9	1.9%	-8	4	0.5
CN(c1ccc(OC(=O)CC2OC(=O)c3ccccc32)cc1)S(=O)(=O)c1ccccc1 (configuration not stated)	-1.4	0	1.2%	1	-7	0.1
CC(=O)c1cccc(-c2ccnc3c2CC(C(=O)Nc2cccc(Oc4ccccc4)c2)O3)c1 (configuration not stated)	-5.3	.	3.7%	-11	-2	-0.2
Cc1cc(C)n2nc(C(=O)NC(C)(C)C)nc2n1	-3.8	-8	2.2%	-13	6	-0.3
O=C(/C=C/c1ccc(F)cc1)NC(=S)NC1CCCCC1	-5.3	-1	2.6%	-18	3	-0.9
CCOc1ccc(N2CC(O)(c3ccc(F)cc3)[N+]3=C2CCCC3)cc1 (configuration not stated)	-1.7	-4	0.5%	-14	4	-1.3
Cc1cnc(NC(=O)c2cc(-c3ccccc3)nn2-c2ccccc2)s1	-0.2	47	-0.3%	-4	2	-0.8
Cc1ccnc(NC(=O)c2ccc(C(=O)c3ccccc3)cc2)c1	5.8	23	-0.1%	17	-6	1.9
O=C1NC(c2cccs2)Nc2sc3c(c21)CCCC3 (configuration not stated)	0.5	31	8.4%	22	-15	-0.6
CC(=O)N1CCc2cc(S(=O)(=O)N3c4ccccc4CC3C)ccc21 (configuration not stated)	1.4	35	8.8%[38.3 µM]	-6	3	0.0
COP1(=O)C=C[C@H](N(Cc2ccccc2)S(=O)(=O)c2ccccc2[N+](=O)[O-])[C@@H](C)O1 (some centres not stated)	-0.3	-21	2.4%	1	1	-0.3
Nc1c(C(=O)c2ccc(F)cc2)sc(Nc2ccccc2F)c1S(=O)(=O)c1ccc(Br)cc1	.	-13	1.4%	.	.	12
COc1ccc(CNC(=O)c2[nH]c(C(F)(F)F)nc2-c2ccccc2)cc1	2.6	-11	2.6%	-5	-6	0.8
COc1ccccc1-c1nnc2n1N=C(C)CS2	0.7	5	-0.2%[38.3 µM]	-4	3	2.7
N#CC1(NC(=O)CSc2ccccn2)CCCCC1	0.3	-11	-1.6%	-33	5	0.3

Continued, starting with the last 4 of the part before.
SMILES	D2 agonist	TRPML1 blocker	PINK1 modulator	D2 PAM	Six1-Eya2 blk	TRPML1 ag
Nc1c(C(=O)c2ccc(F)cc2)sc(Nc2ccccc2F)c1S(=O)(=O)c1ccc(Br)cc1	.	-13	1.4%	.	.	12
COc1ccc(CNC(=O)c2[nH]c(C(F)(F)F)nc2-c2ccccc2)cc1	2.6	-11	2.6%	-5	-6	0.8
COc1ccccc1-c1nnc2n1N=C(C)CS2	0.7	5	-0.2%[38.3 µM]	-4	3	2.7
N#CC1(NC(=O)CSc2ccccn2)CCCCC1	0.3	-11	-1.6%	-33	5	0.3
CCN1CCN(CCNC(=O)c2ccc3c(c2)N(Cc2cccc(Cl)c2)C(=O)c2ccccc2S3=O)CC1 (configuration not stated)	-8.9	22	0.4%	-38	-6	0.2
Cc1ccc(OCC(=O)Nc2ccc3c(c2)nc(CCNC(=O)c2ccco2)n3C)cc1	.	-11	?	.	.	-0.6
COc1ccc(CN(C)C(=O)Cn2cnc3c(NCc4ccccc4)ncnc32)cc1OC	2.5	-7	0.0%	-4	-1	-0.5
C/C(=N\NC(=O)Cc1c(F)cccc1Cl)c1cccnc1	-0.4	-1	-0.4%	2	0	-0.4
COc1ccc(OCCN2CCN(C(=O)c3ccc(OC(F)F)c(OC)c3)CC2)cc1	3.5	38	0.9%	1	-10	1.5
COC(=O)C1=C(N)OC2=C(C(=O)CC(C)(C)C2)C1c1cc2c(cc1Cl)OCO2 (configuration not stated)	0.5	-2	0.5%	-3	-10	-0.4
CCC(C)Nc1nc(-c2ccccn2)nc2ccccc12 (configuration not stated)	-11	.	22%	-27	?	.
CN1C(=O)/C(=C/c2ccccc2OCc2ccccc2F)NC1=S	-4.7	2	11%	-17	2	1.9
NC(=O)C1(N2CCCCC2)CCN(C(=S)NCCc2ccccc2)CC1	-3.1	2	0.2%	-1	0	0.7
O=C(CN1CCCCCC1)Nc1cc(C(F)(F)F)ccc1Cl	-4.8	29	5.9%	-41	9	0.2
Cc1ccc(C2=NN(C(=O)C3CCCO3)C(c3ccco3)C2)cc1 (configuration not stated)	0.8	-15	-0.8%	3	0	1.4
Brc1ccc(C2=CC(c3ccco3)n3ncnc3N2)cc1 (configuration not stated)	-8.9	-5	0.3%	4	-12	0.3
CCOC(=O)N1CCN(C(=O)C2CCCCC2)CC1	-3.5	-6	-0.4%	-10	2	2.2
CCCOc1ccc(CCCN=C(N)N)cc1Cl	-0.8	-13	-1.9%	-29	25	0.8
Cc1cc(NC(=O)CSc2nnc(-c3ccncc3)n2Cc2ccccc2)n(-c2ccccc2)n1	4.3	-11	0.1%	10	-2	0.8
CCOC(=O)C1(Cc2ccccc2C(F)(F)F)CCN(C2CCN(C(C)=O)CC2)CC1	-2.3	-15	0.0%	-6	3	-0.4
CC1(C)Cc2cccc(OCC(=O)NCCOc3ccccc3)c2O1	-1.1	-9	-1.0%	-4	10	2.4
CCOc1ccc(C(=O)OCc2cc(=O)n3nc(C(C)C)sc3n2)cc1	.	-22	1.4%	.	.	-0.8
Cc1ccccc1C(N)=O	2.5	22	2.0%	-5	0	-0.3
Cc1ccc(CCC2C3=C(CCCC3=O)OC3=C2C(=O)CCC3)cc1	-3.9	-8	-3.9%[38.3 µM]	-10	6	-0.2
Cc1cc(C)c(NC(=O)Cn2nnc(C(=O)NCCc3ccccc3)c2N)c(C)c1	-4.0	-11	1.3%	-9	0	-0.6
COc1ccc(O/C(=N\S(=O)(=O)c2ccccc2)c2ccccc2)cc1	3.2	7	.	0	0	0.5
CCn1nc(C(=O)NNS(=O)(=O)c2ccc(C)cc2)c2ccccc2c1=O	5.8	-5	-0.7%	-3	0	-0.4
C/C(=N/Nc1nc(-c2ccc(Cl)cc2)cs1)c1cccs1	4.3	18	3.5%	24	-1	1.8
O=C(COc1ccc(Cl)cc1)OCC(=O)c1ccc[nH]1	-7.0	1	1.8%	-7	0	0.9
Cc1ccc(NC(=O)Cn2cnc3c(oc4ccccc43)c2=O)cc1	.	4	0.8%	.	.	-0.6
COc1ccc(C(=O)COC(=O)Cn2cnc3ccccc3c2=O)c(OC)c1	-3.9	-2	-1.3%	4	4	-0.5

Compound activity (PubChem BioAssay)
